Calb biofilm kill: clotrimazole potentiators killing C. albicans biofilm, primary screen, 4-compound mixtures; 120,000 tested, 0.02% active; inhibition, % at 7.6 µM; C. albicans biofilm persisters + clotrimazole, fluorescence viability; primary screen in compound mixtures of four per well;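 active means inhibition above 30.3% in the primary screen of four-compound pools, then above 30% when the compound was retested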;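 further: compounds exposed to preformed 24 h biofilms for 48 h; the number belongs to the whole pool; some results filed as inactive read as strong as hits; inactives centre near 12; 0% = biofilm with clotrimazole alone and 100% = kill control; retested singly at about 60 µM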
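Incubation: 24 h biofilm formation, then 48 h compound exposure, 37 °C | Material: C. albicans biofilms | Buffer or medium: RPMI/MOPS medium, pH 7.0 | Measured by: 2-h Alamar Blue fluorescence, 535/590 nm excitation/emission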
Starred values were filed as active, the others as inactive. These rows are one share of the data; rates above refer to the full screens.

SMILES	Calb biofilm kill
CCc1ccc(NC(=O)C(=O)NCCN2CCN(Cc3ccc([N+](=O)[O-])cc3)CC2)cc1	14
CC(C(=O)NCc1ccco1)n1cc([N+](=O)[O-])cn1 (stereo unspecified)	1
CN(C)C(C)(C)C#CCCCCC#CC(C)(C)N(C)C	5
CCNS(=O)(=O)c1ccc(NC(=O)Nc2ccccc2OC)cc1	12
NS(=O)(=O)c1cccc(NC(=O)COC(=O)C2CCN(S(=O)(=O)c3cccs3)CC2)c1	16
CC(=O)Nc1ccc2nc(SCC(=O)NCCOc3ccccc3)sc2c1	30
Cc1ccc(C(=O)N2CCN3C(=O)c4ccccc4C23c2ccccc2)cc1 (stereo unspecified)	-2
Cc1cc(/C=N/NS(=O)(=O)c2ccc(F)c(Cl)c2)no1	20
CCOC(=O)c1c(-c2ccccc2)csc1NC(=O)CCN1CCOCC1	16
Nc1c(-c2ccccc2)c(CSc2nc3ccccc3[nH]2)nn1-c1cccc(Cl)c1	15
S=C(NCCc1ccccc1)N1CCN(C(c2ccccc2)c2ccccc2)CC1	12
COc1cc(C)ccc1OCCOCCOc1ccc([N+](=O)[O-])cc1	14
Cc1ccc(-c2nnc(SCC(=O)NC3CCS(=O)(=O)C3)nc2-c2ccc(C)cc2)cc1 (stereo unspecified)	21
O=C(NC(=S)NCC1CCCO1)C(c1ccccc1)c1ccccc1 (stereo unspecified)	17
Cc1nnc(NC(=O)Cn2cnc3c2c(=O)n(C)c(=O)n3C)s1	12
CCOC(=O)c1sc(SC)c2c1CCC/C2=N/OC	15
COc1ccc(SN=C2C(C)=CC(=O)C=C2C)cc1	10
COc1ccc(C(=O)Nc2nc3ccc(S(C)(=O)=O)cc3s2)cc1	14
Nc1n[nH]c(=S)n1-c1ccc(Cl)cc1	4
COc1ccc(C(C(=O)NCC2CCCO2)N(C(=O)CNC(=O)c2cccs2)c2ccc(NC(C)=O)cc2)cc1OC (stereo unspecified)	14
COc1cccc(NC(=O)COc2ccc(C)cc2)c1	11
Cc1ccc2nc(SCC(=O)c3ccc4c(c3)NC(=O)CO4)[nH]c2c1	16
CC(=O)NC(CC(=O)NC1CCCCCC1)c1ccccc1 (stereo unspecified)	13
CCCCCCc1c(O)nc(SCCN2CCOCC2)[nH]c1=O	22
CC/C(O)=C1\C(=O)CCCC1=NCCc1c(C)[nH]c2ccc(C)cc12	-1
CCCS(=O)(=O)c1c(S(=O)(=O)CCC)c2ccc(C(N)=O)cn2c1C(=O)OC	-1
CCC1CCCCN1C(=O)CSC1=NN2CCCC(=O)N=C2S1 (stereo unspecified)	21
CCN(CC)CCNC(=O)c1ccc(NC(=O)c2cn(-c3ccccc3)nc2-c2cccs2)cc1	8
COc1ccccc1C(=O)C1CCCN(C(=O)c2cc(C(C)C)no2)C1 (stereo unspecified)	-2
COCc1nc2ccccc2n1Cc1ccccc1C	3
COc1ccccc1-n1c(-c2ccccc2)n[nH]c1=S	19
COc1ccc(C2=NCCc3cc(OC)c(OC)cc32)cc1OC	10
O=C(Nc1ccc(C(=O)N2CCOCC2)cc1)Nc1ccc(Cl)cc1Cl	-10
O=C1CCC([N+](=O)[O-])C(c2cc3c(cc2Cl)OCO3)N1 (stereo unspecified)	28
O=C(CCC(=O)OCc1ccc(C(=O)Oc2ccc(Cl)cc2)cc1)Nc1ccccc1	18
COc1cc(/C=N/N2CCOCC2)ccc1OC(=O)c1ccco1	10
O=C(Nc1ccccn1)c1ccc([N+](=O)[O-])o1	14
CC(=O)NC(CCCNC(=S)NC1CCCCC1)C(=O)O (stereo unspecified)	16
COc1ccc(OC)c(-n2c(=O)c3ccccc3c3ccccc3c2=O)c1	19
CC(C)C1C(c2ccccc2)NC(c2ccccc2)CC1(O)c1ccc(F)cc1 (stereo unspecified)	4
N#Cc1c(NC(=S)NC(=O)c2ccccc2)sc2c1CCN(CCc1ccccc1)C2	15
Cc1ccccc1NC(=S)/C(=C(\[O-])c1ccc(C)c([N+](=O)[O-])c1)[n+]1ccccc1	15
O=C1NC(=O)c2cc(NC(=O)C3COc4ccccc4O3)ccc21 (stereo unspecified)	10
CCOC(=O)N1CCC(NC(=O)C(NS(=O)(=O)c2ccc3c(c2)CCN3C(=O)CC)C(C)C)CC1 (stereo unspecified)	5
O=C(O)CC1S/C(=N/N=C/C2CC=CCC2)NC1=O (stereo unspecified)	5
COc1ccc(N=Nc2[nH]c3ccc(C)cc3c2O)cc1	8
COc1ccc(NC(=O)/C(C#N)=C/C=C/c2ccco2)cc1	33
Cc1ccccc1OCC(=O)N/N=C1\SCC(=O)N1Cc1ccccc1	23
COc1ccccc1CNC(=O)C(=O)Nc1nccs1	15
C#CCOCCOCCOCCNc1nc(N2CCN(C(=O)[C@H](CCC(=O)O)n3cc(C(N)CC(C)C)nn3)CC2)nc(N2CCN(C(=O)[C@H](CCC(=O)O)n3cc(C(N)[C@H](C)CC)nn3)CC2)n1 (stereo partly specified)	12

(next part)
SMILES	Calb biofilm kill
COc1ccc(OC)c2[nH]c(=O)c(CCNC(=O)C(=O)c3c(C)[nH]c4ccccc34)cc12	16
CC(C)[C@H](NC(N)=O)C(=O)NCCc1ccc(Cl)cc1	9
Cc1csc(NC(=O)c2cc(-c3ccccc3)nc3ccccc23)n1	21
COc1ccc(-c2cnc(SCC(=O)Nc3nc(C(C)(C)C)cs3)n2Cc2ccco2)cc1	17
CCC(C)NC(=S)N1CCN(Cc2ccc3c(c2)OCO3)CC1 (stereo unspecified)	17
CCN1CCN(c2cc(-c3ccccc3)nc3cc(-c4cccc(F)c4)nn23)CC1	14
Cc1cc(C)cc(S(=O)(=O)c2cnc3ccccc3n2)c1	9
CCOC(=O)N/N=C/c1ccc(N2CCOCC2)s1	10
O=C(Nc1ccc(Oc2ccc(C(F)(F)F)cn2)c(Cl)c1)C1CC1	17
COc1cc(Cl)cc(/C=N/NC(N)=O)c1O	17
CCOC(=O)N1CCC(N(CCN(C)C)C(=S)Nc2ccccc2OC)CC1	19
N=c1n(Cc2ccccc2)c2ccccc2n1CC(O)COc1ccc(Cl)cc1Cl (stereo unspecified)	9
CCC(=O)c1ccc(Oc2ccc(C(=O)c3ccc(C)cc3)cc2[N+](=O)[O-])cc1	9
CCOC(=O)C1=C(CC)OC(N)=C(C#N)C1c1ccc(OC)c(OC)c1OC (stereo unspecified)	12
CN(C(=O)c1ccc(OC2CCN(CCc3ccccc3)CC2)cc1)C1CCCCC1	24
CCC(=O)Nc1cccc(-n2nnnc2SCC(=O)N2CCCCC2)c1	13
Cc1cc(Nc2ccccc2)c2c([N+](=O)[O-])ccc(C)c2n1	4
O=Cc1cccn1-c1cccc([N+](=O)[O-])c1	13
CCC(NC(=O)NNC(=O)c1ccncc1)(C(F)(F)F)C(F)(F)F	26
O=C(Nc1ccccc1)Nc1nc(-c2ccccc2)cs1	16
O=C(Cc1c(F)cccc1Cl)NC1=NCCS1	2
C=CCn1c(C)cc(C(=O)CSc2nc(N)cc(N)n2)c1C	-7
O=C(NCCCCCCNC(=O)c1cncc(O)c1)c1cncc(O)c1	22
CCOC(=O)c1c(-c2ccccc2)oc2ccc(OC(C)C(=O)O)cc12 (stereo unspecified)	31
CSCc1ccc(C(=O)Nc2cc(C)cc(C)c2)cc1	13
CCOc1ccccc1NC(=O)C1CCN(C(=O)NCc2ccccc2)CC1	24
CCn1c(=O)c2cc(C(=O)N(C)c3ccc(OC)cc3OC)sc2c2ccccc21	-1
CNC(=S)N1CCc2cc(OC)c(OC)cc2C1	25
N/C(=N/OCc1cccc([N+](=O)[O-])c1)c1nonc1N	-2
O=C(O)c1cc([N+](=O)[O-])ccc1NCCc1ccccc1	10
COc1ccc(CN(CC2CCCO2)C(=O)CN2C(=O)C(C)Oc3ccc(C)cc32)cc1OC (stereo unspecified)	5
COc1ccc(S(=O)(=O)NC(N)=NCCc2ccccc2)cc1	15
CC(=O)NC(NC(C)=O)c1ccc(N(C)C)cc1	7
O=C(CN1CCN(c2ccc(F)cc2)CC1)NCc1cccs1	7
O=C(NC(=S)Nc1ccc(S(=O)(=O)N2CCCC2)cc1)C1CCC1	11
Cc1csc2c(N3CCN(C(=O)Nc4ccccc4)CC3)ncnc12	12
COc1ccc(N2CCN(C(CNC(=O)OCc3ccccc3)c3ccco3)CC2)cc1 (stereo unspecified)	-3
Cc1ccccc1CSc1nc2[nH]ncc2c(=O)[nH]1	3
COc1ccc(N(CN2C(=O)C3CCCCC3C2=O)C(=O)c2ccco2)cc1 (stereo unspecified)	23
COc1cc(C(=O)NC(CCSC)C(=O)OCc2cc([N+](=O)[O-])cc3c2OCOC3)cc(OC)c1OC (stereo unspecified)	14

21 successive records out of the list so far, quoted:
SMILES	Calb biofilm kill
O=C(Nc1ccccc1)Nc1nc(-c2ccccc2)cs1	16
O=C(Cc1c(F)cccc1Cl)NC1=NCCS1	2
C=CCn1c(C)cc(C(=O)CSc2nc(N)cc(N)n2)c1C	-7
O=C(NCCCCCCNC(=O)c1cncc(O)c1)c1cncc(O)c1	22
CCOC(=O)c1c(-c2ccccc2)oc2ccc(OC(C)C(=O)O)cc12 (stereo unspecified)	31
CSCc1ccc(C(=O)Nc2cc(C)cc(C)c2)cc1	13
CCOc1ccccc1NC(=O)C1CCN(C(=O)NCc2ccccc2)CC1	24
CCn1c(=O)c2cc(C(=O)N(C)c3ccc(OC)cc3OC)sc2c2ccccc21	-1
CNC(=S)N1CCc2cc(OC)c(OC)cc2C1	25
N/C(=N/OCc1cccc([N+](=O)[O-])c1)c1nonc1N	-2
O=C(O)c1cc([N+](=O)[O-])ccc1NCCc1ccccc1	10
COc1ccc(CN(CC2CCCO2)C(=O)CN2C(=O)C(C)Oc3ccc(C)cc32)cc1OC (stereo unspecified)	5
COc1ccc(S(=O)(=O)NC(N)=NCCc2ccccc2)cc1	15
CC(=O)NC(NC(C)=O)c1ccc(N(C)C)cc1	7
O=C(CN1CCN(c2ccc(F)cc2)CC1)NCc1cccs1	7
O=C(NC(=S)Nc1ccc(S(=O)(=O)N2CCCC2)cc1)C1CCC1	11
Cc1csc2c(N3CCN(C(=O)Nc4ccccc4)CC3)ncnc12	12
COc1ccc(N2CCN(C(CNC(=O)OCc3ccccc3)c3ccco3)CC2)cc1 (stereo unspecified)	-3
Cc1ccccc1CSc1nc2[nH]ncc2c(=O)[nH]1	3
COc1ccc(N(CN2C(=O)C3CCCCC3C2=O)C(=O)c2ccco2)cc1 (stereo unspecified)	23
COc1cc(C(=O)NC(CCSC)C(=O)OCc2cc([N+](=O)[O-])cc3c2OCOC3)cc(OC)c1OC (stereo unspecified)	14

The results go on.
SMILES	Calb biofilm kill
CC1CN(S(=O)(=O)c2cccc(C(=O)NN3CCN(C)CC3)c2)CC(C)O1 (stereo unspecified)	10
C=C(C)CNC(=S)/N=c1\scc(C)n1CC	8
O=C(Cc1cccs1)NCc1cccc(CNC(=O)Cc2cccs2)c1	14
COc1ccc2cc(Br)ccc2c1CC(=O)NC(C)C	6
Cc1ccccc1NC(=O)COC(=O)/C=C/c1cn(-c2ccccc2)nc1-c1cccnc1	13
CCN(CC)C(=O)Cc1cn(C)c2ccccc12	16
OCCC1CN(Cc2ccn[nH]2)CCN1Cc1ccc(F)c(F)c1 (stereo unspecified)	7
Nc1ncnc(NNC(=O)CNC(=O)c2c(F)cccc2Cl)c1[N+](=O)[O-]	7
Cc1c(CN2CCc3c([nH]c4ccccc34)C2CC(C)C)cnn1C (stereo unspecified)	21
CCCCn1c(/C=N/Nc2nc3ccccc3[nH]2)nc2ccccc21	18
COc1ccc(Oc2nc(-c3ccncc3)nc3ccccc23)cc1	17
Cc1nn(Cc2c(F)cccc2Cl)c(C)c1[N+](=O)[O-]	18
Cc1ccccc1OCCCSc1nc2ccccc2[nH]1	18
COCC(C)NC(=O)COc1nncc2ccccc12 (stereo unspecified)	-1
CC1CCc2c(sc(Nc3nc4c(F)cccc4s3)c2C(N)=O)C1 (stereo unspecified)	9
CC(C)c1onc(C(=O)N2C(C)CCCC2C)c1[N+](=O)[O-] (stereo unspecified)	20
CC(c1ccco1)N(C(=O)c1ccccc1NS(=O)(=O)c1ccc(Cl)c([N+](=O)[O-])c1)c1ccccn1 (stereo unspecified)	12
O=[N+]([O-])c1ccccc1-c1ccc(C(=S)N2CCCCC2)o1	22
Cc1nc2ccccc2c(=O)n1NC(=O)c1ccco1	12
CC1CCN(C(=O)CN2C(=O)c3cccc4cccc(c34)C2=O)CC1	11
O=C(NCc1ccco1)c1cccc(C(F)(F)F)c1	4
CCc1cccc(CC)c1NC(=O)CN1C2CCCC1CC(NC(=O)Nc1cccc(OC)c1)C2 (stereo unspecified)	6
NC(=O)c1nn(-c2ccccc2)nc1NC(=O)CSc1nnnn1-c1ccc(Cl)cc1	8
CCOC(=O)c1ccc(NC(=S)N2CCCC2c2ccc(OC)c(OC)c2)cc1 (stereo unspecified)	16
O=C(/C=C/c1cccc([N+](=O)[O-])c1)NC1CC2CCC1C2 (stereo unspecified)	8
COc1cc(CNCc2ccccn2)ccc1OCC(=O)NC(C)(C)C	9
O=C(NCc1ccc2c3c(cccc13)C(=O)N2)c1cccs1	13
Cc1nc2ccccc2c2c1CC(C)S2 (stereo unspecified)	14
Cc1cc(C(=O)Cn2ncc(Cl)c(Cl)c2=O)c(C)n1CC(F)(F)F	7
S=C(NCC(c1cccnc1)N1CCOCC1)NC1CCCCC1 (stereo unspecified)	1
CSc1ccccc1C(=O)NCC(c1ccco1)N1CCCCC1 (stereo unspecified)	17
O=S(=O)([N-]c1nc2ccccc2nc1-[n+]1ccc(Cc2ccccc2)cc1)c1ccc(Br)s1	24
Cc1ccc(-c2nc(C(Cl)Cl)c3ccccc3n2)cc1	10
O=C(CSc1nncn1-c1ccccc1)NC1CCCc2ccccc21 (stereo unspecified)	-3
COc1cc(C(C2=C(O)CC(C)(C)CC2=O)C2C(=O)CC(C)(C)CC2=O)cc(OC)c1OC (stereo unspecified)	0
O=S(=O)(c1ccc2ccccc2c1)N1CCN(C2Cc3ccccc3C2)CC1	14

Screens: PubChem, PCMD
